NPYLR7 agonist = activates Aedes aegypti NPYLR7 receptor; activation, % at 10 µM; HEK293T NPYLR7/Galpha15, GCaMP6s calcium fluorescence; actives 0.15% (n = 270,000); in the data active means activation above about 40%;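 further: 0% = vehicle and 100% = reference agonist at the receptor; some compounds past the cut are filed as inactive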
NPYLR7 agonist max-min = further read-out of NPYLR7 agonist, marked with its call; activation, %; measured here: Max-Min RFU normalised activation; some inactives read as strong as hits;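 span of the calcium signal over five minutes; 0% = vehicle and 100% = native peptide agonist; compound fluorescence can raise it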
Starred values were filed as active, the others as inactive; & = joins results of further samples.

The opening 3 entries (preview)
molecule | NPYLR7 agonist | NPYLR7 agonist max-min
COCCOC(=O)C1=C(C)NC2=C(C(=O)CCC2)C1c1cc(Cl)c(O)c(OC)c1 (stereo unspecified) | 0.3 | -1.3
COc1cccc2cc(C(=O)Nc3nnc(-c4cc(C)nn4C)o3)oc12 | 2.7 | 1.4
O=C(NC1CCCC[C@H]1N(Cc1ccc(Cl)cc1)C(=O)c1ccccc1)C1CCCN(C(=O)COc2ccccc2)C1 (stereo partly specified) | -1.2 | -0.2

All compounds of this part (from the top)
molecule | NPYLR7 agonist | NPYLR7 agonist max-min
COCCOC(=O)C1=C(C)NC2=C(C(=O)CCC2)C1c1cc(Cl)c(O)c(OC)c1 (stereo unspecified) | 0.3 | -1.3
COc1cccc2cc(C(=O)Nc3nnc(-c4cc(C)nn4C)o3)oc12 | 2.7 | 1.4
O=C(NC1CCCC[C@H]1N(Cc1ccc(Cl)cc1)C(=O)c1ccccc1)C1CCCN(C(=O)COc2ccccc2)C1 (stereo partly specified) | -1.2 | -0.2
CN(C)c1ccc(NC(=O)c2cccc(F)c2)cc1CN(CC1CCCO1)C(=O)c1cccs1 (stereo unspecified) | 4.0 | 16.6
Nc1[nH]nc2nc3ccccc3nc12 | -10.3 | -17.0
CCOC(=O)C1CCN(C(=O)CC(c2cccc(F)c2)c2cn(Cc3ccccc3)c3ccc([N+](=O)[O-])cc23)CC1 (stereo unspecified) | -1.6 | 4.3
CC(=O)C(C)n1c(=O)c2c(nc3n(-c4cc(Cl)ccc4C)c(C)cn23)n(C)c1=O (stereo unspecified) | -0.1 | 10.0
Cc1nc(NC(=O)COC2CCCCC2)sc1C | 1.6 | 3.1
CN(C)c1cc(-c2ccccc2)nc(SCc2cccc(C(=O)NCc3ccccn3)c2)n1 | 27.9 | 29.4
Oc1oc(-c2ccccc2)nc1C=Nc1nncs1 | -8.2 | -10.2
COc1ccc(NC(=O)Nc2c(C)nc3cc(C)ccn3c2=O)cc1OC | -0.4 | -1.8
CCOc1ccc(C2C(=C(O)c3ccc(OC)cc3)C(=O)C(=O)N2CCN2CCOCC2)cc1 (stereo unspecified) | -0.5 | -1.7
COc1cccc(CC2CN(c3nc(C(N)=O)cs3)CCO2)c1 (stereo unspecified) | -2.9 | -2.6
CC(C)c1nc(CCNC(=O)c2cccs2)cs1 | 0.6 | 0.8
CCC(C)(C)N(C)C(=O)CCc1cccs1 | 21.7 | 10.1
CC(C)N(Cc1cccc(OS(C)(=O)=O)c1)C(=O)c1cccc(F)c1 | 14.2 | 3.3
CCOc1ccc2ccccc2c1C(=O)Oc1coc(CSc2nccn2C)cc1=O | -5.6 | -8.2
COc1cc(CNC(=O)c2cc(-c3ccc4c(c3)OCCO4)nc3c2cnn3C(C)C)ccn1 | 5.0 | 2.0
COc1ccc(CC(=O)N2CCOC(COCc3c(Cl)cccc3Cl)C2)c(OC)c1OC (stereo unspecified) | 18.4 | 15.6
O=c1ccc(-c2cccs2)nn1CCNS(=O)(=O)c1ccc(C(F)(F)F)cc1 | 7.3 | 6.2
COc1cc(C2C(C(C)=O)=C(O)CC(C)(O)C2C(C)=O)ccc1O (stereo unspecified) | 0.8 | -0.1
COc1ccc(OC)c(CN(Cc2ccon2)C(C)(C)C)c1 | -1.4 | -1.4
CCN(Cc1noc(C2CC2)n1)C(=O)c1onc2ccccc12 | 19.6 | 7.6
COc1ccc(NC2(C(=O)N3CCNC(C(=O)O)C3)CCCC2)cc1 (stereo unspecified) | -5.3 | -7.7
CCCN1CCC(C)(C(=O)Nc2nc3cc(C)c(C)cc3[nH]2)C1 (stereo unspecified) | 0.5 | 2.2
CCc1noc(CCCC(=O)N2CCOC(c3n[nH]c(CC)n3)C2)n1 (stereo unspecified) | -5.3 | -5.8
CN(CC(=O)Nc1ccc(F)cc1)Cn1nc2c(Cl)cc(Cl)cn2c1=S | 4.7 | 3.1
COc1ccc(-n2nnnc2CNC(=O)Cc2cccc3ccccc23)cc1 | 4.9 | 1.7
CCOC(=O)C1CCCN(C(=O)c2nn(-c3ccc(C(F)(F)F)cc3)c(=O)n(Cc3cccc(OC)c3)c2=O)C1 (stereo unspecified) | 17.8 | 20.4
CC(=O)Oc1c(-c2ccc(NC(=O)c3ccc4c(c3)OCO4)cc2)c(-c2cccc(C)c2)nn1-c1cc(C)ccc1C | -1.9 | 4.3
Cc1c(N2C(=O)C3C4C=CC(C5CC45)C3C2=O)c(=O)n(-c2ccccc2)n1C (stereo unspecified) | 6.6 | 6.7
CN1CC2(CCCN(Cc3ccc(F)c(C(F)(F)F)c3)C2)OC1=O (stereo unspecified) | 1.5 | 0.5
Cc1cccc(C)c1C(OCCN(C)C)C1CCCCC1 (stereo unspecified) | 5.7 | 8.4
COc1cc(F)ccc1-c1ncccc1NC(=O)C(C)C | -2.7 | -3.4
COc1ccc(C(=O)Nc2c(N)nc(SCC(=O)Nc3cccc(C)c3C)[nH]c2=O)cc1OC | 2.4 | 1.7
O=C(CCc1c[nH]c2ccccc12)Nc1ccc(N2CCCC2=O)c(Cl)c1 | 10.2 | 5.1
CCC(=O)N1CCSC12C(=O)N(Cc1cccc(C#N)c1)c1ccc(Cl)cc12 (stereo unspecified) | 5.1 | 7.9
COC(=O)CN(Cc1ccccc1Cl)C(=O)c1ccc[nH]c1=O | -0.1 | 11.8
Cc1cc(N2CCC(C)CC2)n2ncc(-c3ccc(Cl)cc3)c2n1 | 2.8 | 3.9
COc1nc(-c2ccccc2F)n(-c2cccc(NC(=O)c3ccccc3F)c2)n1 | -1.9 | 4.6
CC(C)NC(=O)N1Cc2[nH]cnc2C[C@H]1C(=O)NCc1ccccc1 | -8.2 | -13.9
O=C(NCCc1ccc(Cl)cc1)c1cc(-c2ccc3c(c2)OCO3)nc2ccccc12 | 3.1 | 2.2
CCc1ccc2ncc(C#N)c(N3CCC4(CC3)OCCO4)c2c1 | -2.0 | -3.6
O=C(CCC1CCN(Cc2ccc(O)cc2)CC1)N1CCN(c2ccccc2)CC1 | 8.6 | 3.4
CCc1ccc(-c2cc3c(SCC(=O)Nc4ccc(OC)cc4OC)nccn3n2)cc1 | -0.6 | -2.6
NC(=O)COC(=O)c1ccccc1NC(=O)c1ccc([N+](=O)[O-])o1 | 10.9 | 6.2
CNC(C)=CC(=O)C(F)(F)F | 0.7 | -1.0
c1ccc(-c2nnsc2-c2nc3ccccc3[nH]2)cc1 | 8.4 | 2.2
Nc1nc(N)nc(SCC(=O)c2ccc[nH]2)n1 | 0.6 | -2.0
CC1(C(=O)Nc2ccc(Cl)c(Cl)c2)CCN1Cc1ccc(OC(F)(F)F)cc1 (stereo unspecified) | -0.8 | -5.7
CCOCCCN(CC(=O)N1CCc2sccc2C1c1ccccc1)S(=O)(=O)/C=C/c1ccccc1 (stereo unspecified) | -9.3 | -14.4
Cc1cc(N2CCN(c3cccc(C(F)(F)F)c3)CC2)nc(SCc2ccc(C(=O)O)o2)n1 | 8.4 | 21.3
COc1ccc(-c2cc(C(=O)N3CCN(C(c4ccccc4)c4ccccc4)CC3)c(C)n2-c2ccccc2Cl)cc1 | -0.2 | 0.7
CCC/C=C/c1ncccc1NC(=O)C1CC1 | 22.2 | 12.7
COc1ccc(NC2C=CS(=O)(=O)C2)cc1 (stereo unspecified) | -1.8 | -2.1
CC(C)C(=O)N1CCCC(C(=O)N(CC(F)(F)F)c2cccc(Cl)c2)C1 (stereo unspecified) | 2.3 | 0.4
CN(CC1Cc2ccccc2O1)c1nccc(N2CCC(O)CC2)n1 (stereo unspecified) | -10.1 | -12.4
COc1ccc(NC(=O)c2ccc(CSc3nnc(-c4ccncc4)n3-c3ccccc3F)cc2)cc1 | 7.2 | 13.4
N#CC(=C(O)CCN1C(=O)c2ccccc2C1=O)c1nc2ccccc2[nH]1 | 0.0 | 5.1
C=CCn1c(SCc2cc(F)cc(F)c2)nnc1-c1ccccc1F | -2.5 | 4.5

Remaining list, next part.
molecule | NPYLR7 agonist | NPYLR7 agonist max-min
CC(C)N(CCNC(=O)CCc1nc2sc3c(c2c(=O)[nH]1)CCCC3)C(C)C | 1.2 | 7.3
Cc1noc(C)c1CN1CCN2C=C(C(=O)NCCc3ccccc3)OC2=NC1=O | -5.8 | -7.0
CCN(Cc1c(F)cccc1Cl)C(=O)CC1C(=O)NCCN1C(C)C (stereo unspecified) | 23.0 | 7.0
N#CC(=NNc1ccc(S(=O)(=O)N2CCOCC2)cc1)C(N)=S | -2.6 | -4.3
CN(C)Cc1ccc(CNC(=O)Nc2ccc(OC3CCCC3)cc2)cc1 | 5.6 | 1.7
CCc1nc2ccc(C(=O)NCCN(C)C)cn2c1N(C)Cc1cc2ccccc2s1 | 9.2 | 4.1
Cc1cc(C)cc(NS(=O)(=O)c2cccc(Br)c2)c1 | -0.7 | -1.4
NC(Cn1ccnc1)c1cccc(C(F)(F)F)c1 (stereo unspecified) | 10.4 | 9.9
Cc1ccn2c(=O)nc(SCc3ccc(F)cc3)nc2c1 | -0.5 | -0.9
COc1cccc(C(=O)N2CCC3(CC2)C(=O)N(CC(=O)NCCc2ccccc2)CN3c2ccccc2)c1 | 21.8 | 27.4
COc1ccc(C(=O)NCC2CCCC(O)C2)cc1S(=O)(=O)N(C)C (stereo unspecified) | 10.0 | 7.9
CC1(Cc2cccc(C(N)=O)c2)C(=O)Nc2cc(-c3ccc(F)cc3F)ccc21 (stereo unspecified) | 5.9 | 8.0
CCc1nn(-c2cc(Oc3cc(C)ccc3C)nc(C)n2)c(N)c1C#N | 4.4 | 10.6
COc1ccc(N2CCN(c3nc4nonc4nc3N3CCOCC3)C(C)C2)cc1 (stereo unspecified) | 4.4&3.9 | -0.7&8.2
CCN(CC)C(=O)[C@@H]1C[C@@H](N)CN1C(=O)c1cc2ccccc2n(C)c1=O | -4.2 | -7.2
CN(CC1CCCN(CCc2ccccc2F)C1)C(=O)c1n[nH]c2c1CCC2 (stereo unspecified) | 16.8 | 6.5
COc1ccc(CNC(=O)N2CC=C(c3ccc(O)cc3)CC2)cc1OC | 5.0 | 4.8
CCCN(CC(=O)N(CCc1ccccc1)Cc1ccco1)C(=O)Nc1ccc(OC)cc1 | -5.5 | -2.2
O=C1NC(=O)NC2(N1)C(=O)Nc1ccccc12 | 4.2 | 1.9
O=C(NCCn1nc(-c2cccnc2)ccc1=O)Nc1cccc(F)c1 | 10.8 | 3.5
Cc1cc(C2CCCN2Cc2ccc(C(=O)Nc3cc(C)nn3C)cc2)on1 (stereo unspecified) | 11.6 | 8.9
CCOC(=O)C(Cc1ccc(Cl)cc1)NC(=O)c1ccc(-n2nc(C)c(CC)c2C)cc1 (stereo unspecified) | -5.4 | -10.5
CCOc1cc(/C=C/C(=O)Nc2ccc(N3CCCC3=O)c(C)c2)ccc1OC | 10.0 | 7.1
CCCC(=O)n1c2ccccc2c2nc3ccccc3nc21 | -5.8 | -10.0
Cc1nnc2ccc(N3CCN(C(=O)C(C)Oc4ccc5c(c4)OCO5)CC3)nn12 (stereo unspecified) | 3.6 | 9.3
CCNC(=O)c1cc(N2CC(C)OC(c3ccccc3)C2)ccn1 (stereo unspecified) | -17.0 | -17.5
O=C1C(=Cc2cn(-c3ccccc3)nc2-c2ccc(F)cc2)SC(=S)N1C1CCS(=O)(=O)C1 (stereo unspecified) | -7.3 | -10.8
CNC(=S)Nc1ccc(N2CCOCC2)cc1 | 8.3 | 7.3
O=S(=O)(c1ccc2c(c1)CCC2)N1CCCC1c1ccc2c(c1)OCCCO2 (stereo unspecified) | 1.8 | -0.1
CCCCN(CC(=O)N1c2ccccc2-n2cccc2C1c1ccc(F)cc1)C(=O)COC (stereo unspecified) | -8.7 | -4.0

Ordered by number of heavy atoms (low to high): some entries from above.
molecule | NPYLR7 agonist | NPYLR7 agonist max-min
Cc1ccn2c(=O)nc(SCc3ccc(F)cc3)nc2c1 | -0.5 | -0.9
CCCC(=O)n1c2ccccc2c2nc3ccccc3nc21 | -5.8 | -10.0
N#CC(=NNc1ccc(S(=O)(=O)N2CCOCC2)cc1)C(N)=S | -2.6 | -4.3
CC1(Cc2cccc(C(N)=O)c2)C(=O)Nc2cc(-c3ccc(F)cc3F)ccc21 (stereo unspecified) | 5.9 | 8.0
O=C1C(=Cc2cn(-c3ccccc3)nc2-c2ccc(F)cc2)SC(=S)N1C1CCS(=O)(=O)C1 (stereo unspecified) | -7.3 | -10.8

Continued.
molecule | NPYLR7 agonist | NPYLR7 agonist max-min
Cc1cccc(C)c1Nc1c(C(C)c2ccccc2)nc2cccc(C)n12 (stereo unspecified) | 0.9 | 7.7
Cn1nnnc1SCCC(=O)Nc1ccc(Cl)cc1F | 1.1 | 1.5
Cc1ccc(C=CC(=O)N2CCN(S(=O)(=O)c3ccccc3Cl)CC2)s1 | 3.3 | 2.8
NC(=O)[C@H](Cc1ccccc1)NC(=O)c1ccc2nc(-c3cccs3)[nH]c2c1 | 0.0 | -1.6
CCOC(=O)C1CCN(C(=O)C(C)n2ccsc2=NC(=O)c2cccc(C(F)(F)F)c2)CC1 (stereo unspecified) | -8.2 | -8.3
Cc1cc(C(=O)NCCOc2ccc3nnc(-c4ccccc4)n3n2)c(C)o1 | -0.9 | 26.7
O=c1cc(CSc2n[nH]c3nc4ccccc4n23)nc2sccn12 | 10.7 | 6.9
Cc1noc(C)c1CC(=O)NCc1cccnc1-n1ccnc1 | 9.0 | 8.1
CCc1ccc(S(=O)(=O)Nc2ccc(S(=O)(=O)CCO)cc2)s1 | -0.7 | -3.3
CCc1oc(C(=O)OC)cc1Cn1nnnc1C(C)(C)C | 3.2 | 2.5
COc1ccccc1C=C1SC(N2CCCCC2)=NC1=O | 11.4 | 4.4
CC(C)Cn1c(CN(C)CCN2CCOCC2)cnc1S(C)(=O)=O | 3.5 | 0.9
COc1cc(C2Sc3ccccc3N=C3c4ccccc4CCC32)cc(OC)c1OC (stereo unspecified) | 2.4 | 2.2
CCOC(=O)C1CCN(c2nc3c(S(=O)(=O)c4cc(C)ccc4C)nnn3c3ccsc23)CC1 | -6.5 | -11.3
CCn1cc(C(=O)N2CCN(CC(=O)NC)CC2)c2nn(-c3ccccc3)c(=O)c-2c1 | -3.6 | -8.0
CCOc1ccc(S(=O)(=O)N(CC)CC)cc1NC(=O)c1cc(C)nc2c1nc1n2CCCCC1 | 3.1 | 19.6
COc1ccc(-c2ccc(SCCN3CCCCC3)nn2)cc1OC | 12.5 | 6.7

High-throughput results from PubChem.

Not all compounds are listed; rates above refer to the full screens.
